NS1 function inh = inhibitors of influenza NS1 protein function; S. cerevisiae slowed by influenza A NS1, growth recovery by OD600; Potency, µM (highest dose often 46.1 µM), for the others: top-dose activity, positive = more growth; 270,000 tested, 0.4% active; AID 2326; note: actives are rising curves; nearly all actives have a fitted effect of over 50% in size
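A cell-based growth assay was used: compounds that relieve NS1-induced slow growth of budding yeast raise OD600. Assay medium was yeast nitrogen base with ammonium sulphate and -URA supplement, pH 6.0, with 2% galactose.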
Cruzain inh Det = blocks cruzain activity in presence of Triton detergent. 200,000 tested, 0.43% active. P25779. Potency, µM, for inactives: max response, negative = inhibition, usual class: inhibitors. purified cruzain, Z-FR-AMC fluorescence, 0.01% Triton; active = well fitted curve in the direction sought with a large enough effect; inconclusive = small, poorly fitted or top-dose-only effect, or another doubt; inactive = no such curve, though single readings can be large; an effect the other way counts as inactive or inconclusive;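 note: plate controls were neutral wells for no effect and buffer without enzyme for full effect; nearly all actives have a fitted effect of over 40% in size; top concentration of the series not given in the record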
Target sequence (P25779 123-467 limits assumed): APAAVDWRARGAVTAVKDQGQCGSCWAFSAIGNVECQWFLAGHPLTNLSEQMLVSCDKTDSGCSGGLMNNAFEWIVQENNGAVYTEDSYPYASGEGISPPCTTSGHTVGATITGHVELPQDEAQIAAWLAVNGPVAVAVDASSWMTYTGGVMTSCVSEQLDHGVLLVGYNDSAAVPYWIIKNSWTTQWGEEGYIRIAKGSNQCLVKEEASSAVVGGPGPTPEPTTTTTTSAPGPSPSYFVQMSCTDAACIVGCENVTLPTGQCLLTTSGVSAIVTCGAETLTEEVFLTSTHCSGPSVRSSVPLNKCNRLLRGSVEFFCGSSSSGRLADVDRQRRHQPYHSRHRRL
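Cruzain (1.5 nM) preincubated 15 min at RT with compound in 100 mM sodium acetate pH 5.5, 5 mM DTT, 0.01% Triton X-100. Reaction started with 2 uM Z-FR-AMC; AMC fluorescence (ex 360/em 450 nm) change over 60 s gave rate.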
Cruzain inh noDet = inhibitors of Trypanosoma cruzi cruzain without detergent | P25779 | 200,000 tested, 2.3% active | Potency, µM, for inactives: max response, negative = inhibition, hits mostly inhibitors | AID 1476 | purified cruzain, Z-FR-AMC fluorescence, no detergent; active = well fitted curve in the direction sought with a large enough effect; inconclusive = small, poorly fitted or top-dose-only effect, or another doubt; inactive = no such curve, though single readings can be large; an effect the other way counts as inactive or inconclusive;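 note: plate controls were enzyme without inhibitor for no effect and buffer without enzyme for full effect; nearly all actives have a fitted effect of over 40% in size; top concentration of the series not given in the record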
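Detergent-free condition (0.00005% Triton X-100) in acetate buffer pH 5.5 with DTT. 1.5 nM enzyme and compound were pre-mixed 15 min, then 2 uM Z-FR-AMC substrate added; reaction progress from fluorescence change between first and third reads (60 s).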
SARS PLP yeast = SARS-CoV PLP inhibition in yeast. Potency, µM (highest dose often 32.9 µM), inactives show at the top dose activity, positive = growth rescue. 330,000 tested, 0.19% active. S. cerevisiae expressing SARS-CoV PLpro, growth rescue; control for the full effect not named in the record; note: 0% is about no effect; nearly all actives have a fitted effect of over 55% in size; growth read by luminescence after 48 h
StopGo reporter = lowers the luciferase signal of an FMDV 2A StopGo reporter. human cells with a luciferase reporter of 2A StopGo recoding; control for the full effect not named in the record. Potency, µM (series often up to 57.9 µM), inactives show top-dose signal change, negative = less light. 410,000 tested, 1.2% active. AID 1159524; active = well fitted falling curve with a large enough effect; inconclusive = small, poorly fitted or top-dose-only effect; inactive = no such curve, though single readings can be large or run the other way; tested in HEK293T cells; note: % is set by controls: 0 for no effect and ±100 for the full control effect; nearly all actives have a fitted effect of over 45% in size; luciferase light after 4 h
Marburg entry inh = inhibitors of Marburg virus binding or cell entry | Marburg virus pseudotyped entry inhibition, cell reporter; control for the full effect not named in the record; about a third of the inactives were read at about 46 µM | AID 540276 | 300,000 tested, 1.8% active | Potency, µM (titrated, usually from 37.8 µM), without a hit: top-dose activity change, negative = inhibition, hits mostly inhibitors; active = well fitted inhibition curve with a large enough effect; inconclusive = small, poorly fitted or top-dose-only effect, or effect the other way; inactive = flat fitted curve, though single readings scatter; tested in HEK293 cells; about a fifth of its hits are not listed in these tables; note: % is set by controls: 0 for no effect and ±100 for the full control effect; luciferase read-out
LASV entry inh = Lassa virus entry inhibition; Potency, µM (top dose mostly 37.9 µM), for inactives: top-dose activity change, negative = inhibition, actives largely listed as inhibitors; 300,000 tested, 1.2% active; Lassa virus pseudotype entry inhibition, cell reporter; control for the full effect not named in the record; AID 540256; active means well fitted inhibition curve with a large enough effect; inconclusive means small, poorly fitted or top-dose-only effect, or effect the other way; inactive means flat fitted curve, though single readings scatter; tested in HEK293 cells; note: % is set by controls: 0 for no effect and ±100 for the full control effect; nearly all actives have a fitted effect of over 50% in size; luciferase read-out
RE007 growth inh = less growth of the S. pombe RE007 Vpr strain | 360,000 tested, 0.21% active | S. pombe RE007 Vpr strain, BacTiter-Glo ATP luminescence, 24 h; control for the full effect not named in the record | Potency, µM (series often up to 92.2 µM), inactives show at the top dose activity change, negative = less growth | AID 651644; active = well fitted falling curve with a large enough effect; inconclusive = small, poorly fitted or top-dose-only effect; inactive = no such curve, though single readings can be large or run the other way;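 note: % is set by controls: 0 for no effect and ±100 for the full control effect; nearly all actives have a fitted effect of over 50% in size; the assay follows cell death caused by Vpr and the record does not say whether a fall means rescue or toxicity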
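Fission yeast RE007 carrying one integrated HIV-1 vpr copy, seeded at OD 0.01 in PMG+AL medium with 23 nL pinned compound. Grown 24 h at 30 degrees; viability read by BacTiter-Glo luminescence after 5 min.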
The depositor's hits bear a star; ? = inconclusive; . = not tested or not shown; [ ] = dose if it differs, or a comment. Unless noted, calls come from the whole dose curve; as a rule, active means well fitted rising curve with a large enough effect; inconclusive means small, poorly fitted or top-dose-only effect; inactive means no such curve, though single readings can be large or run the other way. Potency is the fitted concentration of half-maximal effect. Compounds were not picked by outcome. Share with any hit: about 4.7%.

SMILES | NS1 function inh | Cruzain inh Det | Cruzain inh noDet | SARS PLP yeast | StopGo reporter | Marburg entry inh | LASV entry inh | RE007 growth inh
Cc1ccc(C)c(S(=O)(=O)Nc2ccc(C(N)=O)cc2)c1 | 1% | . | . | -1% | 51%[activator] | -29%[46.1 µM] | -3% | ?
CN(C)S(=O)(=O)c1cccc(NC(=O)CNCc2ccccn2)c1 | 6% | . | . | 0% | 2% | -10%[46.1 µM] | ? | 14%
O=C(Nc1cccc(C(=O)N2CCOCC2)c1)c1ccc([N+](=O)[O-])cc1 | 8% | . | . | ? | -1% | . | . | -6%
Cc1ccc2oc(-c3cc(NC(=O)c4ccc5c(c4)OCCO5)cc(C)c3O)nc2c1 | . | 0.9% | -4% | . | 18% | -4%[46.1 µM] | 2%[46.1 µM] | .
N#Cc1cn(CC(=O)N2CCCC2)c2ccccc12 | -6% | 5.3% | 4% | -1% | -2% | 14% | 3% | 5%
Cc1ccc(Cl)cc1N1CCN(C(=O)CCn2c(=O)c3cccn3c3cccnc32)CC1 | . | -0.5% | 1% | . | ? | . | 0%[46.1 µM] | .
CCn1c2c(c(=O)n3ncc(C(=O)N4CCN(c5ccc(C(C)=O)cc5)CC4)c13)CN(Cc1ccc(OC)cc1)CC2 | . | -9.1% | 21% | . | 20µM* | . | 10µM* | .
COc1ccc(S(=O)(=O)N(C)c2c(C)n(C)n(-c3ccccc3)c2=O)cc1OC | -2% | -0.5% | -5% | 10% | 3% | 22% | -12% | -25%
Cc1ccc(CNC(=O)c2cc(=O)c3cc(C)cc(C)c3o2)cc1 | . | -2.2% | 3% | . | -1% | ? | 5%[46.1 µM] | .
CCN(CC(=O)Nc1ccc(S(=O)(=O)N2CCOCC2)cc1)Cc1ccccc1 | . | . | . | 6% | -10% | 11%[46.1 µM] | -23% | -7%
O=C(CCN1CCN(S(=O)(=O)c2ccc(F)cc2)CC1)Nc1ccccc1F | -17% | . | . | 4% | 2% | . | . | 0%
O=c1c(CN2CCN(c3cccc(Cl)c3)CC2)coc2c(Cl)cc(Cl)cc12 | 1% | -0.9% | ? | -3% | 1% | 1% | . | -8%
O=C(O)C1C(=O)NCC1c1ccccc1 (stereo not given) | 9% | . | . | 2% | 5% | ? | ? | -7%
CCCc1cc(=O)[nH]c(SCc2cc(C(=O)OC)c(C)o2)n1 | 0% | -3.3% | -14% | -4% | -13% | -11% | -10% | 12%
Cc1ccc(-c2[nH]ncc2C(=O)c2cccc(F)c2)c(O)c1 | -10% | . | . | 1% | -2% | -3% | 4% | 2%
CCSC(SCC)[C@H](O)[C@@H](O)[C@H](O)[C@H](O)CO | 1% | -0.8% | -8% | 1% | -17% | -5% | -8% | 5%[18.4 µM]
Cc1ccc2nc(NC(=O)CCCC(=O)O)sc2c1 | 3% | . | . | 0% | 7.9µM* | . | . | -3%
Cc1cc(C(F)F)nn1CC(=O)NC1CCCCCC1 | 5% | . | . | -4% | -8% | 4%[46.1 µM] | -1%[46.1 µM] | -4%
COc1ccc(/C=N/NC(=O)c2nnn(-c3nonc3N)c2CN(C)C2CCCCC2)cc1 | 1% | . | . | 0% | -28% | . | . | 4%
O=C(N/N=C/c1ccc(N2CCOCC2)cc1)c1ccc(NS(=O)(=O)c2cccs2)cc1 | . | . | . | 0% | 27% | 29%[46.1 µM] | . | -11%
O=C(O)c1cnn(-c2ccccc2)c1-c1ccncc1 | 0% | . | . | 3% | -17% | 1%[46.1 µM] | ? | -2%
COc1ccc(OC)c(CNC(=O)C2CCN(c3nc4ccccc4nc3C(F)(F)F)CC2)c1 | . | 2.8% | -2% | . | -23% | . | 0%[46.1 µM] | .
COc1ccc(C(=O)/C=C/c2ccc(OC(=O)c3cc(OC)c(OC)c(OC)c3)cc2)cc1 | 20% | -3.5% | 28% | 1% | ? | ? | ? | -3%
COc1ccc(C(=O)c2c(C)oc3ccc(O)c(CN4CCOCC4)c23)cc1 | -13% | -0.9% | -5% | 3% | 17% | 21µM* | ? | -18%
O=C(N/N=C/c1ccccc1F)NC1CCCCC1 | -2% | -3.9% | 9% | -16% | 35%[activator] | 24% | 8% | -3%
SMILES | NS1 function inh | Cruzain inh Det | Cruzain inh noDet | SARS PLP yeast | StopGo reporter | Marburg entry inh | LASV entry inh | RE007 growth inh
Cc1cccc(NC(=O)CN(C)C(=O)c2ccc(N3CCCCCC3)c([N+](=O)[O-])c2)c1C | . | . | . | -4% | -1% | ? | -29%[46.1 µM] | -7%
CCCn1c2c(c(O)c(C(=O)Nc3ccc(OCC)cc3)c1=O)CCCC2 | -4% | -2.7% | ? | 7% | -14% | 15% | 4% | 4%
Cc1nn(C)cc1C(C(=O)NC1CCCCC1)N(C(=O)Cc1cccs1)c1ccc(C(C)C)cc1 (stereo not given) | -16% | -6.2% | ? | ? | -22% | ? | -8% | -6%
CCOc1ccccc1NS(=O)(=O)c1cn(C)c(=O)n(C)c1=O | 3% | . | . | 1% | -2% | . | . | 6%
Cc1c(C)n(CC(O)CNCCO)c2ccccc12 (stereo not given) | 3% | . | . | -1% | -18% | . | . | -5%
CS(=O)(=O)N(CC(=O)NC1CCCC1)Cc1ccc(Cl)cc1 | 1% | 1.2% | 10% | -4% | 8% | 2% | 16% | 17%
COc1cccc2cc(C(C)N(CCCN3CCOCC3)C(=S)Nc3cccc(C)c3C)oc12 (stereo not given) | . | . | . | -5% | -4% | ? | ? | -21%
O=C1NCCCC2c3c(cc(Br)c(O)c3Br)OC12N1CCOCC1 (stereo not given) | 6% | -0.6% | -1% | 6% | 23% | 0% | 3% | -27%
COC(=O)C1=NN(C(C)=O)C2(CC(=O)N(c3cccc(C)c3)C2=O)C1 (stereo not given) | 18% | -0.8% | 19% | -2% | -2% | ? | ? | 1%
COc1ccc(NC(=S)Nn2cnnc2)cc1OC | 7% | . | . | 0% | -6% | -27%[46.1 µM] | 0% | -1%
CCn1c(SCC(=O)N2CCC(C)CC2)nnc1-c1ccc(S(=O)(=O)N2CCN(C)CC2)cc1 | -5% | 1.7% | 0% | 12% | -2% | -17% | 2% | 1%[3.69 µM]
Cc1ccc(NC(=O)/C(=C/c2cccs2)NC(=O)c2ccco2)cc1 | 2% | -8.1% | 7% | -2% | 11% | -22% | 7% | -11%
CCOC(=O)c1c(C)[nH]c(C)c1S(=O)(=O)NCC(=O)N1CCN(c2ccccc2OC)CC1 | . | 2.0% | 5% | . | -14% | . | 6%[46.1 µM] | .
O=C(NC1CCCCCC1)c1c(O)c2ccccc2[nH]c1=O | -7% | 8.3% | -13% | -15% | 59%[activator] | ? | ? | 2%
COc1ccc2[nH]cc(CCNS(=O)(=O)Cc3ccccc3)c2c1 | 4% | . | . | -2% | -9% | -28%[46.1 µM] | ? | -6%
COc1ccc(CCNC(=O)c2oc3ccc(OC)cc3c2C)cc1 | 2% | . | . | 0% | 6% | . | . | 16%
CCN1CCN(Cc2c(O)ccc3c2O/C(=C\C=C\c2ccccc2OC)C3=O)CC1 | 6% | 0.2% | -1% | -20% | -14% | ? | -6% | -24%
COc1cccc(C(=O)Nc2nc3ccc(S(C)(=O)=O)cc3s2)c1 | . | . | . | 1% | -5% | ? | ? | -10%
COc1ccc(N(CC(=O)NCc2cccs2)S(=O)(=O)c2c(C)nn(C)c2C)cc1 | -2% | 5.0% | 5% | 0% | -15% | . | . | -10%
O=C(COC(=O)c1c(F)cccc1Cl)NC1CCCC1 | -8% | . | . | 0% | 56%[activator] | ? | 23% | 9%
CCOc1ccc(NC(=O)C2CCCN(c3ccc(Sc4ccc(C)cc4)nn3)C2)cc1 (stereo not given) | . | 1.3% | 10% | . | -14% | ? | ? | .
O=C(O)CCC(=O)N1CCc2cc(S(=O)(=O)NCc3cccs3)ccc21 | ? | 2.2% | 6% | -2% | 50%[activator] | 19% | 12% | 12%
CCOc1ccc(C(C)=O)cc1COc1ccc(-n2cnnn2)cc1 | -66% | -1.8% | -12% | 0% | 0% | 2% | -9% | -8%
COc1ccccc1N1CCN(C(c2cccs2)C(C)NC(=O)c2cccs2)CC1 (stereo not given) | -38% | -4.9% | 1% | ? | -25% | -38% | -18% | ?
COC(=O)c1ccc(COC(=O)CNS(=O)(=O)c2ccc(C)cc2)cc1 | . | . | . | -8% | 9% | 6% | 8% | 11%
SMILES | NS1 function inh | Cruzain inh Det | Cruzain inh noDet | SARS PLP yeast | StopGo reporter | Marburg entry inh | LASV entry inh | RE007 growth inh
O=C(CSc1ccc(Br)cc1)NCC(c1cccs1)N1CCOCC1 (stereo not given) | . | . | . | 3% | ? | -30% | 8%[46.1 µM] | -19%
CCOc1ccc(CCNC(=O)CN2C(=O)NC3(CCCc4ccccc43)C2=O)cc1OCC (stereo not given) | . | . | . | 1% | -21% | 0%[46.1 µM] | 14% | 4%
CSc1n[nH]c(NCc2ccc(C)cc2)n1 | 5% | 0.7% | 6% | -8% | 44%[activator] | -65% | ? | 13%
Cc1onc(-c2ccccc2)c1C(=O)Nc1ccc(-c2nnc3n2CCCCC3)cc1 | -3% | 4.2% | 3% | -8% | 10% | ? | ? | 8%
COc1ccc(Cl)cc1NC(=O)CCN1C(=O)C2C3CCC(C3)C2C1=O (stereo not given) | -5% | . | . | 26% | 10% | 9%[46.1 µM] | . | 0%
Cc1ccc(C2CC(c3ccc(F)cc3)Nc3nc(N)nn32)cc1 (stereo not given) | 17% | -0.5% | 4% | 11% | -14% | 10% | 5% | -4%
CCC1(C)NC(=O)N(/N=C/c2cc(OC)c(O)c(OC)c2)C1=O (stereo not given) | . | . | . | -3% | -8% | 8% | -15% | -18%
COc1ccc(C)cc1NC(=O)C(Sc1nnc(Nc2ccccc2F)s1)c1ccccc1 (stereo not given) | ? | -4.6% | ? | -4% | 31%[activator] | -17% | -16% | -8%
CCc1nn2c(=O)cc(COC(=O)c3ccccc3)nc2s1 | . | -3.4% | 0% | . | 25% | . | ? | .
COc1ccc(C(=O)NCC(c2ccco2)S(=O)(=O)c2cccs2)cc1 (stereo not given) | . | -1.7% | ? | . | 12% | . | 9%[46.1 µM] | .
O=C(NC(c1ccccc1)c1ccccc1)c1ccc(Br)o1 | 2% | -0.1% | -5% | 9% | 5% | 3% | ? | -1%
Cc1cc(C)cc(NC(=S)NCCc2ccc(S(N)(=O)=O)cc2)c1 | 4% | -5.3% | 7% | -9% | -19% | 7%[46.1 µM] | -10% | 11%

Bioassay records (PubChem)
